Compound activity as filed in PubChem BioAssay.
RECQ1 helicase: RECQ1 (human) helicase inhibition. P46063. RECQ1 DNA unwinding, red fluorescence kinetic read. Potency, µM (highest dose often 57.3 µM), for the others: top-dose activity, negative = inhibition, hits mostly inhibitors. hit rate 0.54% among 240,000. AID 2549;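 further: plate controls were vehicle for no effect and no enzyme for full effect; nearly all actives have a fitted effect of over 30% in size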
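RECQ1T1 50 nM; forked duplex (20 bp + 30-nt ss tails) 200 nM, ATP 2 mM final; pH 8.0, 2 mM MgCl2, 2.5 ug/ml poly(dI-dC); 15 min compound preincubation; discontinuous kinetic read over 2 h at RT.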
Tau ThT inhib: blocks human tau fibril formation measured by thioflavin T. P10636. recombinant tau K18 P301L (four-repeat tau fragment), heparin-induced fibrillization, ThT fluorescence. Potency, µM (top dose mostly 57.4 µM), for inactives: at the highest dose activity, negative = inhibition, most hits filed as inhibitors. hit rate 2.1% among 270,000; further: on the % scale 0 is the no-effect control and ±100 the full control effect; nearly all actives have a fitted effect of over 55% in size
Target sequence (P10636 561-689 P618L limits assumed): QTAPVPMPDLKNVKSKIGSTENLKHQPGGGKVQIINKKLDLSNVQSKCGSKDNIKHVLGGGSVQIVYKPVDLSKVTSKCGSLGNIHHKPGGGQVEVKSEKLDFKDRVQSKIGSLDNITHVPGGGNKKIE
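Tau K18 P301L fragment (15 uM unlabeled plus 0.24 uM Alexa 594-labeled) in 100 mM sodium acetate pH 7 with compound, fibrillization induced by 20 uM heparin for 6 hr at 37 C. Thioflavin T (30 uM) added, fluorescence read after 1 hr (ex 450, em 510 nm).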
LMNA splice mod: LMNA splicing modulation | HeLa LMNA splicing GFP/RFP minigene ratio, 48 h | Potency, µM (series often up to 46.1 µM), for the others: at the top dose ratio change, negative = inhibition, usual class: inhibitors | hit rate 0.01% among 200,000 | AID 1487; active means well fitted inhibition curve with a large enough effect in the signal ratio, with a control signal flat, not every such curve was filed as active; inconclusive means small, poorly fitted or top-dose-only effect, or effect the other way, or a change in a side signal; the % refers to the signal ratio; further: on the % scale 0 is the no-effect control and ±100 the full control effect
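S3 HeLa cells stably expressing lamin A-EGFP splicing minigene plus DsRed2, 600 cells/well, 48 h compound exposure at 37C. Laser-scanning cytometry; analysed as GFP (500-530 nm)/RFP (575-640 nm) total intensity ratio; 0.5% DMSO vehicle.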
SMN2 splice enh: SMN2 splice variant enhancement | HEK293 SMN2-luciferase splicing reporter, luminescence, 30-36 h | Potency, µM (series often up to 46.1 µM), without a hit: at the highest dose activity change, positive = activation, hits mostly activators | hit rate 2.8% among 210,000; further: % of control where 0% means no effect; nearly all actives have a fitted effect of over 55% in size
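HEK293 cells carry an SMN2 minigene-luciferase reporter in which exon 7 inclusion puts luciferase in frame. Cells were seeded at 2000 cells/well, attached for 10-12 hours, then exposed to compounds for 30-36 hours at 37C before ONE-Glo luminescence.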
KDM4E inh: inhibitors of human JMJD2E histone demethylase; B2RXH2; JMJD2E catalytic domain, FDH-coupled NADH fluorescence (FDH is formaldehyde dehydrogenase); Potency, µM (doses to about 57.1 µM), for the others: at the highest dose activity change, negative = inhibition, actives largely listed as inhibitors; hit rate 1.6% among 230,000; active means well fitted inhibition curve with a large enough effect, not every such curve was filed as active; inconclusive means small, poorly fitted or top-dose-only effect, or another doubt; inactive means no such curve, though single readings can be large or run the other way;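 further: 0% = wells with enzyme and -100% = buffer wells without enzyme; nearly all actives have a fitted effect of over 50% in size; many of its hits are not listed in these tables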
KinaseGlo FLuc: Kinase-Glo luciferase inhibition (counter-screen); Q27757; Kinase-Glo luciferase, ATP luminescence, 8 min; Potency, µM (series often up to 38.3 µM), inactives show at the highest dose activity change, negative = inhibition, most hits filed as inhibitors; hit rate 0.28% among 200,000; AID 1379; further: on the % scale 0 is the no-effect control and ±100 the full control effect; nearly all actives have a fitted effect of over 60% in size
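Luminescence was the read-out, taken after 8-minute incubation at ambient temperature. Luciferase turned over luciferin with 10 uM ATP in imidazole pH 7.2 buffer containing KCl, MgCl2, Tween 20 and BSA.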
L3MBTL1 block: inhibitors of human L3MBTL1 | AlphaScreen L3MBTL1–H3K9me1 peptide binding | Potency, µM (titrated, usually from 57.1 µM), for the others: at the highest dose activity, negative = inhibition, hits mostly inhibitors | hit rate 0.66% among 230,000 | AID 485360; further: on the % scale 0 is the no-effect control and ±100 the full control effect; nearly all actives have a fitted effect of over 60% in size
Target sequence (Q9Y468 whole entry, looked up): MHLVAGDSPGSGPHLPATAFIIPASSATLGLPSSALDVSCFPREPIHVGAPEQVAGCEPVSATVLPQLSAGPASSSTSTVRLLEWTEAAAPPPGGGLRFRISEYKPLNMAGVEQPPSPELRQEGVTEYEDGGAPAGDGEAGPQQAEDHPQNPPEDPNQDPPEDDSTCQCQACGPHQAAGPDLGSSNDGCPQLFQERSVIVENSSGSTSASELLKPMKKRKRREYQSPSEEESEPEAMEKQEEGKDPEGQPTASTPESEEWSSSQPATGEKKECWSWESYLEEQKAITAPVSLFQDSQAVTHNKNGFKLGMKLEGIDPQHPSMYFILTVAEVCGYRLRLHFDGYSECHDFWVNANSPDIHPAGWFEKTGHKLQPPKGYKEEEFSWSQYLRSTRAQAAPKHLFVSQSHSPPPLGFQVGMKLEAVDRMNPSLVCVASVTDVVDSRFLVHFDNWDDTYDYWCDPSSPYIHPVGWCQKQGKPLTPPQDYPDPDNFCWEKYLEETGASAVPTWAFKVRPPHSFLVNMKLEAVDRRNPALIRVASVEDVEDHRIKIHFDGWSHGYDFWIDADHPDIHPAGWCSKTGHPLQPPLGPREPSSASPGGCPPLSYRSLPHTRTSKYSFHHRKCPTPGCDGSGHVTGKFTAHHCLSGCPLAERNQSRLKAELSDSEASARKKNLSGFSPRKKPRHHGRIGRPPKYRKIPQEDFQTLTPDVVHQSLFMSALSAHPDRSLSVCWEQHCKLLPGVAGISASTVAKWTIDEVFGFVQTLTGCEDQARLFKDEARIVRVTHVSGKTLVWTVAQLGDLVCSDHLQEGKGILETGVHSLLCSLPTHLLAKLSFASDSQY
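L3MBTL1 (50 nM) pre-complexed 30 min with biotinylated H3(1-15)K9me1 peptide (75 nM), then compounds added for 30 min at room temperature; AlphaScreen streptavidin donor/nickel chelate acceptor beads (10 ug/mL final) read after 30 min dark incubation.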
The depositor's hits bear a star; i = inactive; ? = inconclusive; nt = no result given; & = joins results of further samples; [ ] = dose if it differs, or a comment. Unless noted, the call rests on the fitted dose curve; in most records, active means well fitted curve in the direction sought with a large enough effect; inconclusive means small, poorly fitted or top-dose-only effect, or another doubt; inactive means no such curve, though single readings can be large; an effect the other way counts as inactive or inconclusive. Potency means the concentration at half of the fitted maximal effect.

SMILES | RECQ1 helicase | Tau ThT inhib | LMNA splice mod | SMN2 splice enh | KDM4E inh | KinaseGlo FLuc | L3MBTL1 block
O=C(Oc1ccc(Br)cc1)c1cncc(Br)c1 | -0.9% | -18.5% | 15.8% | -20.0% | 5.4% | 4.5% | nt
O=C(CSc1ccccn1)Nc1ccccc1F | -1.4% | -7.1% | -5.3% | -0.4% | -2.8% | 0.0% | -7.0%
O=C(NCc1ccco1)C1CCN(S(=O)(=O)c2cccc3cccnc23)CC1 | -9.8% | -8.2% | -4.8% | 14.8% | 2.1% | -0.1% | -5.9%
CCOC(=O)C(=O)NNc1ccc(Cl)cc1 | -4.7% | -5.4% | nt | -42.5%[inhibitor] | -3.6% | 1.2% | nt
COC(=O)c1ccc(CSc2nnc(SCc3ccc(C(=O)OC)o3)s2)o1 | -10.2% | ? | ? | -16.0% | -2.5% | -1.1% | -5.7%
Cc1ccn(CCC(=O)O)n1 | i | -4.1% | nt | nt | 5.3% | nt | 11.0%
N#CC1=C(N)OC2=C(CC/C2=C\c2ccccc2Cl)C1c1ccccc1Cl (stereo unspecified) | -7.5% | ? | -9.9% | -28.4% | ? | -2.0% | 4.3%
CCOC(=O)CSc1ncc(OC)c(Sc2ccc(Cl)cc2)n1 | -12.6% | -13.1% | 9.5% | -1.1% | -12.0% | -0.6% | 17.9%
O=C(CCCN1C(=O)c2ccccc2C1=O)NCc1cccnc1 | 4.7% | -6.7% | -2.3% | 32.8% | 3.1% | 3.2% | nt
CC(=O)N1[C@H](C)C=C[C@]1(Cc1ccccc1)C(=O)O | -9.0%&-2.5% | -14.8%&-4.3% | -0.1% | -3.8%&-7.0% | 1.3%&10.5% | -4.1%&3.5% | 6.5%
Cc1nc2cc(CC(=O)O)ccc2o1 | i | -8.6% | 2.2% | 20.4% | 4.9% | -0.3% | -1.7%
CCc1nnc(SCCSc2nnc(CC)n2N)n1N | -1.0% | -8.3% | 7.1% | 10.4% | -5.9% | -3.8% | -3.8%
COc1ccc(/C=C2/SC(=O)N(NS(=O)(=O)c3ccccc3)C2=S)cc1OC | 1.7% | ? | -1.3% | -10.0% | 3.1% | -4.0% | nt
CCN1CCN(c2c(Cl)cccc2NC(=O)c2ccc(Br)o2)CC1 | -5.4% | 3.7% | 12.0% | -36.8%[inhibitor] | 6.2% | -3.8% | -3.8%[11.4 µM]
CCOn1c(=O)c(C)[n+]([O-])c2ccccc21 | -1.5% | -2.7% | -4.3% | -19.2% | ? | 0.0% | 3.5%
COc1cccc(OC)c1OCCCOc1c(OC)cccc1OC | -3.6% | -13.5% | 9.5% | 19.6% | -6.0% | -3.0% | 10.5%[11.4 µM]
N#Cc1cnn(-c2cccc(Cl)c2)c1-n1cccc1 | i | -7.7% | nt | nt | 13.9% | nt | 2.2%
Cc1cc(C)n(S(=O)(=O)Cc2ccccc2)n1 | i | 0.5% | 9.4% | -2.1% | -0.2% | -2.3% | 2.6%
Cc1ccc(-n2c(Cn3ncc4ccccc4c3=O)n[nH]c2=S)cc1 | i | 0.4% | nt | 3.6% | 9.7% | 0.0% | 5.8%[11.4 µM]
C/C(=N/NC(=O)CCCOc1ccc(Cl)cc1Cl)c1ccc(C)o1 | -10.5% | -12.1% | ? | -4.6% | 0.2% | 0.5% | -2.4%
CC(=O)c1ccc(N2CCC(C(=O)O)CC2)cc1 | -4.9% | -6.2% | 26.1%[46 µM] | 2.3% | -5.4% | -8.1% | 15.3%
O=C(Nn1c(-c2ccncc2)nc2ccccc2c1=O)c1ccccc1Br | -2.2% | 6.4% | -14.8%[46 µM] | 10.6% | 7.8% | -0.4% | 1.5%
Cn1c(Cn2c(=O)sc3ccccc32)nnc1SCC(=O)N1CCOCC1 | i | -0.1% | -11.1% | 17.3% | -6.2% | 0.2% | ?
Cc1ccc(C(=O)N2CCCC2)cc1S(=O)(=O)Nc1cccc(C)c1C | 13.4% | -2.7% | 7.7%[46 µM] | -8.5% | 5.5% | 1.9% | 2.2%
Cc1ccc(S(=O)(=O)NCCC(=O)NCc2ccccc2)cc1 | -8.4% | -0.1% | 0.5% | -4.3% | 7.0% | 5.2% | 3.2%
SMILES | RECQ1 helicase | Tau ThT inhib | LMNA splice mod | SMN2 splice enh | KDM4E inh | KinaseGlo FLuc | L3MBTL1 block
CC(=O)N1CC2([N+](=O)[O-])CN(C(C)=O)CC([N+](=O)[O-])(C1)C2(C)C | -14.0% | 4.0% | nt | 7.3% | -5.2% | 2.4% | 7.8%
Cc1ccc(C(=O)Nc2ccc(S(=O)(=O)N3CCN(C)CC3)cc2)cc1 | i | -4.6% | -1.8% | -6.2% | 11.8% | -0.2% | 6.5%
O=C(NCc1ccccc1)c1cnc2n(c1=O)CCS2 | -30.1% | 4.0% | -4.5% | -0.4% | -8.8% | 0.3% | 2.5%
O=C(O)c1ccc2c(=O)n3c(nc2c1)/C(=C/c1ccccc1C(F)(F)F)CCCC3 | 3.8% | 1.1% | ? | 7.0% | -3.5% | 2.6% | -8.6%
CCCn1c(SCc2ccc(Cl)cc2)nc2c1c(=O)[nH]c(=O)n2C | 5.9% | ? | 9.1% | -11.7% | 5.0% | 2.4% | 0.2%
CC(=O)N1C(C)(C)CC(=NOS(=O)(=O)c2ccccc2)CC1(C)C | i | -1.6% | 1.3%[46 µM] | 0.6% | -2.2% | -2.1% | 3.0%
COc1ccc2c(=O)c(-c3ccc4c(c3)OCO4)coc2c1 | 2.7%&-4.0% | ? | ? | 11.2µM* | -0.5%&-5.2% | ? | 2.6%
COCCCNC(NC(=O)c1ccc(Cl)cc1)C(Cl)(Cl)Cl (stereo unspecified) | 4.8% | -5.7% | -7.5% | -30.0% | -0.2% | -2.8% | 4.8%
O=c1[nH]cnc2c1N1CCC2CC1 | i | 0.1% | -8.8% | -3.5% | -7.8% | 0.6% | -23.9%
Cc1cc(C)c2c(=O)[nH]c(SCC(=O)c3ccc(F)c(C)c3)nc2n1 | 1.1% | -12.7% | 11.3%[46 µM] | nt | ? | -1.2% | -2.6%
Cc1c(NC(=O)CN2C(=O)NC(C)(c3ccccc3Cl)C2=O)c(=O)n(-c2ccccc2)n1C (stereo unspecified) | -0.3% | 0.0% | -10.1% | 2.2% | 16.2% | -0.1% | 12.9%
CCC(=O)N1CCc2cc(S(=O)(=O)CCC(=O)O)ccc21 | i | -9.0% | -0.6% | 3.4% | -1.8% | -0.2% | -6.2%
COc1ccccc1-c1cncnc1NCc1cccc(C)c1 | -13.9% | -8.4% | -7.6% | -13.7% | -7.9% | -2.3% | nt
CC(C)CN1CCc2nc(-c3ccccc3)c3c(c2C1)COC(C)C3 (stereo unspecified) | i[11.5 µM] | -6.2%[11.5 µM] | nt | nt | nt | nt | nt
CCSc1nc(C)c(C(C)=O)cc1C#N | -5.3% | -4.0% | 1.2% | -2.1% | -1.4% | -0.2% | nt
COc1ccc(C(=O)N2CCC[C@@]3(CCN(c4ccccc4)C3)C2)cc1 | i | nt | nt | -45.6%[inhibitor] | nt | -0.5% | nt
COC(=O)[C@@H]1C[C@@]2(O)[C@H](O)[C@H](O)[C@H](O)C[C@H]2N1Cc1cccc2ccccc12 | i | -3.1%&-0.5% | nt | 4.3% | 6.5%&6.2% | -2.5% | nt
O=[N+]([O-])c1ccc2nc(SCc3cn4cc(Cl)ccc4n3)[nH]c2c1 | -2.1% | 1.4% | -13.4% | -31.8%[inhibitor] | -3.6% | 1.0% | -23.3%
CCC(CC)C(=O)NCc1ccc2c(c1)cc(C)n2C | 5.4% | -3.2% | 11.3% | -16.6% | -12.9% | -5.2% | -4.4%
Cc1nn(CC(=O)NCc2ccccn2)c(C)c1[N+](=O)[O-] | i | -0.3% | nt | nt | 2.6% | nt | -12.4%
O=C(NCc1cccs1)c1cc(C2CC2)on1 | -5.2% | -13.1% | -7.7% | 23.6% | 1.5% | -2.2% | 9.1%
COc1ccc(CNc2nc(-c3ccccc3OC)nc3ccccc23)c(OC)c1 | 2.3% | ? | ? | -43.2%[inhibitor] | -5.7% | 0.3% | nt
COc1ccccc1CNC(=O)COc1ccc2c(c1)CCC2 | 1.0% | ? | nt | 3.9% | -8.3% | 1.7% | nt
Oc1ccc(CN2CCN(c3ccccc3)CC2)c2cccnc12 | -16.1% | ? | -15.1% | -5.2% | 17.8µM* | 0.1% | -0.2%
O=c1c(-c2ccc(F)cc2)nc2cnc(N3CCOCC3)nc2n1C1CC1 | i | nt | -1.8% | nt | nt | nt | nt

Reprinted at random: four records from the list.
SMILES | RECQ1 helicase | Tau ThT inhib | LMNA splice mod | SMN2 splice enh | KDM4E inh | KinaseGlo FLuc | L3MBTL1 block
O=C(CCCN1C(=O)c2ccccc2C1=O)NCc1cccnc1 | 4.7% | -6.7% | -2.3% | 32.8% | 3.1% | 3.2% | nt
CCOC(=O)CSc1ncc(OC)c(Sc2ccc(Cl)cc2)n1 | -12.6% | -13.1% | 9.5% | -1.1% | -12.0% | -0.6% | 17.9%
O=C(NCc1ccccc1)c1cnc2n(c1=O)CCS2 | -30.1% | 4.0% | -4.5% | -0.4% | -8.8% | 0.3% | 2.5%
CC(C)CN1CCc2nc(-c3ccccc3)c3c(c2C1)COC(C)C3 (stereo unspecified) | i[11.5 µM] | -6.2%[11.5 µM] | nt | nt | nt | nt | nt

The listing continues.
SMILES | RECQ1 helicase | Tau ThT inhib | LMNA splice mod | SMN2 splice enh | KDM4E inh | KinaseGlo FLuc | L3MBTL1 block
CCOC(=O)C1CCCN(S(=O)(=O)c2ccc(Br)s2)C1 (stereo unspecified) | -3.4% | -1.4% | 3.0% | 10.7% | -4.7% | 0.3% | nt
CCOc1ccccc1N1CCN(C(=O)CCCc2nc3ccccc3s2)CC1 | -6.1% | ? | -9.1% | -10.6% | -0.9% | 0.8% | 2.7%
CN(CC(=O)NC1CC1)S(=O)(=O)c1ccc(F)cc1 | i | 6.1% | nt | 5.9% | 4.9% | 1.5% | 5.3%
O=C(Nc1ccc2oc(=O)ccc2c1)c1ccccc1[N+](=O)[O-] | -13.5% | -1.0% | nt | -14.6% | 10.8% | 1.7% | nt
CCC(=O)c1cn(CC(=O)NCc2cccnc2)c2ccccc12 | i | -0.4% | 6.4% | -9.7% | 3.6% | 1.8% | 7.3%
O=c1c2ccccc2nc(SCc2nnc(-c3ccccc3)o2)n1-c1ccccc1 | -2.1% | -6.7% | 6.7% | 2.3% | -4.1% | 12.3% | 2.4%

This is a subset (hit frequency here may not be typical).
